Compound activity as filed in PubChem.
A1 apoptosis 2: A1 inhibition read as caspase activation; MEF A1-2A-BIM cells, caspase-Glo luminescence, 3 h; percent of clofoctol response, DMSO zero; caspase activation, % (concentration not given with the values); 24,000 tested, under 10 active; AID 2465; in the data active = caspase activation above about 5.9%;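 note: wells of about 30 µL received 50 nL stock; the first replicate is given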
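system = A1-2A-BIM-expressing MEF cells | quantity = 2500 MEF cells/well | dosing = 50 nL compound per well, pinned | schedule = overnight cell settling, then 3 h compound exposure, 37 °C | signal = luminescence from DEVD-luciferin Caspase-Glo reagent, 1:1 in 50 mM HEPES, 1 h RT | read-out = Caspase-3/7 activation, seen as rise in luminescence signal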
The depositor's hits bear a star. A portion of the library (hit frequency here may not be typical).

SMILES	A1 apoptosis 2
CC(C)Cc1ccc(CN2CC[C@@H](NS(=O)(=O)c3ccccc3)C2)cc1	0.4
C[C@H]1CN([C@@H](C)CO)C(=O)c2cccc(NS(C)(=O)=O)c2O[C@H]1CN(C)Cc1ccccc1	1.2
COc1ccc(S(=O)(=O)N(C)C[C@@H]2OCCCC[C@H](C)Oc3ccc(NC(=O)Nc4ccccc4)cc3C(=O)N([C@@H](C)CO)C[C@H]2C)cc1	0.2
C[C@@H]1CCCCO[C@H](CN(C)S(=O)(=O)c2ccc(Cl)cc2)[C@H](C)CN([C@@H](C)CO)C(=O)c2cc(N(C)C)ccc2O1	0.2
C[C@H]1CN([C@@H](C)CO)C(=O)Cc2cc(NS(C)(=O)=O)ccc2O[C@H]1CN(C)S(=O)(=O)c1cccs1	-0.9
Cc1ccc(S(=O)(=O)N(C)C[C@@H]2Oc3c(cccc3N(C)C)C(=O)N([C@H](C)CO)C[C@H]2C)cc1	0.1
C[C@H](CO)N1C[C@H](C)[C@@H](CN(C)Cc2ccncc2)Oc2ccc(NC(=O)Cn3cnnn3)cc2CC1=O	-0.6
Cc1noc(C)c1NC(=O)N(C)C[C@@H]1OCCCC[C@@H](C)Oc2ccc(NS(=O)(=O)c3c(C)noc3C)cc2C(=O)N([C@@H](C)CO)C[C@H]1C	0.8
Cc1noc(C)c1S(=O)(=O)Nc1ccc2c(c1)C(=O)N([C@H](C)CO)C[C@@H](C)[C@H](CN(C)C(=O)Nc1ccc3c(c1)OCO3)OCCCC[C@@H](C)O2	-0.4
COc1ccc(S(=O)(=O)Nc2ccc3c(c2)C(=O)N([C@@H](C)CO)C[C@@H](C)[C@@H](CN(C)S(=O)(=O)c2cn(C)cn2)O3)cc1	0.8
Cc1noc(C)c1S(=O)(=O)N(C)C[C@@H]1Oc2c(cccc2N(C)C)C(=O)N([C@H](C)CO)C[C@H]1C	0.5
C[C@H](CO)N1C[C@H](C)[C@@H](CN(C)C(=O)Nc2ccc(F)cc2)Oc2ccc(NC(=O)CCCCCC(=O)Nc3ccccc3N)cc2C1=O	-0.1

Reformatted: results already given
> COc1ccc(S(=O)(=O)N(C)C[C@@H]2OCCCC[C@H](C)Oc3ccc(NC(=O)Nc4ccccc4)cc3C(=O)N([C@@H](C)CO)C[C@H]2C)cc1
  A1 apoptosis 2 = 0.2
> Cc1noc(C)c1S(=O)(=O)N(C)C[C@@H]1Oc2c(cccc2N(C)C)C(=O)N([C@H](C)CO)C[C@H]1C
  A1 apoptosis 2 = 0.5
> C[C@H]1CN([C@@H](C)CO)C(=O)Cc2cc(NS(C)(=O)=O)ccc2O[C@H]1CN(C)S(=O)(=O)c1cccs1
  A1 apoptosis 2 = -0.9
> CC(C)Cc1ccc(CN2CC[C@@H](NS(=O)(=O)c3ccccc3)C2)cc1
  A1 apoptosis 2 = 0.4

Additional records follow.
SMILES	A1 apoptosis 2
CNC[C@H]1OCCCC[C@H](C)Oc2ccc(NC(=O)Nc3ccc(F)cc3)cc2C(=O)N([C@H](C)CO)C[C@@H]1C	0.2
Cc1ccc(S(=O)(=O)Nc2ccc3c(c2)C(=O)N([C@@H](C)CO)C[C@@H](C)[C@@H](CN(C)C(=O)Cc2ccccc2)OCCCC[C@H](C)O3)cc1	0.8
C[C@H](CO)N1C[C@H](C)[C@@H](CN(C)C(=O)Nc2ccc3c(c2)OCO3)Oc2c(NC(=O)Nc3ccc(F)cc3)cccc2C1=O	0.2
Cc1ccc(S(=O)(=O)Nc2ccc3c(c2)C(=O)N([C@@H](C)CO)C[C@H](C)[C@@H](CN(C)CC2CC2)O3)cc1	-1.0
C[C@@H]1CN([C@H](C)CO)C(=O)CCCn2nncc2CO[C@@H]1CN(C)Cc1ccc(C(F)(F)F)cc1	1.5
C[C@@H]1CN([C@H](C)CO)C(=O)Cc2cc(NC(=O)Nc3ccccc3)ccc2O[C@@H]1CN(C)S(=O)(=O)c1ccc(F)cc1	1.1
C[C@H]1CN([C@@H](C)CO)C(=O)c2cccc(NC(=O)NC3CCCCC3)c2O[C@@H]1CN(C)Cc1ccc2c(c1)OCO2	2.0
C[C@H]1CCCCO[C@H](CN(C)C(=O)CCC(F)(F)F)[C@@H](C)CN([C@@H](C)CO)C(=O)c2cc(N(C)C)ccc2O1	0.2
COC(=O)CCCCCCC(=O)N/N=C/c1ccc(F)c(Oc2ccccc2)c1	-0.2
Cc1noc(C)c1S(=O)(=O)Nc1cccc2c1O[C@@H](CN(C)C(=O)Nc1ccc(F)cc1)[C@@H](C)CN([C@@H](C)CO)C2=O	0.6
C[C@@H]1CN([C@@H](C)CO)C(=O)c2cc(NC(=O)CCCN(C)C)ccc2O[C@@H](C)CCCCO[C@@H]1CN(C)C	0.0
C[C@@H]1CN([C@@H](C)CO)C(=O)c2cc(NC(=O)Nc3ccc(C(F)(F)F)cc3)ccc2O[C@@H](C)CCCCO[C@H]1CN(C)S(=O)(=O)c1ccc(Cl)cc1	-0.2
C[C@H](CO)N1C[C@H](C)[C@@H](CN(C)C(=O)Nc2ccc(C(F)(F)F)cc2)Oc2ccc(NC(=O)Nc3cccc4ccccc34)cc2C1=O	-0.1
C[C@@H]1CN([C@@H](C)CO)C(=O)c2cc(NS(=O)(=O)c3ccccc3)ccc2O[C@@H]1CN(C)S(=O)(=O)c1ccccc1	-0.6
C[C@@H]1CCCCO[C@@H](CN(C)S(=O)(=O)c2ccc(F)cc2)[C@@H](C)CN([C@H](C)CO)C(=O)c2cc(N(C)C)ccc2O1	0.3
C[C@@H]1CCCCO[C@H](CN(C)Cc2ccccc2)[C@@H](C)CN([C@H](C)CO)C(=O)c2cc(NC(=O)Cc3ccccc3)ccc2O1	-0.1
C=C(C)[C@@H]1CC=C(/C=N/NC(=O)CCCCCCC(=O)O)CC1	1.3
C[C@@H]1CN([C@@H](C)CO)C(=O)c2cccc(NC(=O)CCCCCC(=O)Nc3ccccc3N)c2O[C@H]1CN(C)S(=O)(=O)c1cn(C)cn1	1.9
C[C@H](CO)N1C[C@H](C)[C@H](CN(C)Cc2ccncc2)Oc2ncc(Br)cc2C1=O	0.3
Cc1noc(C)c1NC(=O)N(C)C[C@H]1Oc2c(NC(=O)c3cnccn3)cccc2C(=O)N([C@@H](C)CO)C[C@@H]1C	-0.7
C[C@H](CO)N1C[C@H](C)[C@@H](CN(C)CC2CCCCC2)OCCCC[C@H](C)Oc2ccc(NS(C)(=O)=O)cc2C1=O	0.6
COc1ccc(NC(=O)Nc2ccc3c(c2)C(=O)N([C@H](C)CO)C[C@@H](C)[C@H](CN(C)C(=O)Nc2ccccc2)OCCCC[C@@H](C)O3)cc1	-0.9
COc1ccc(S(=O)(=O)N(C)C[C@@H]2OCCCC[C@@H](C)Oc3ccc(NC(=O)Nc4ccc(C(F)(F)F)cc4)cc3C(=O)N([C@H](C)CO)C[C@H]2C)cc1	2.2
COc1ccc(NC(=O)N(C)C[C@H]2OCCCC[C@@H](C)Oc3ccc(NC(=O)C4CCCCC4)cc3C(=O)N([C@H](C)CO)C[C@@H]2C)cc1	0.2
Cc1ccc(/C=N/NC(=O)CCCCC(=O)NO)o1	0.9
C[C@H]1CN([C@@H](C)CO)C(=O)c2cc(NC(=O)C3CC3)ccc2O[C@H]1CN(C)Cc1ccc(C(=O)Nc2ccccc2N)cc1	-0.4
CC(C)NC(=O)Nc1ccc2c(c1)C(=O)N([C@H](C)CO)C[C@H](C)[C@H](CN(C)Cc1ccc3c(c1)OCO3)O2	-0.8
C[C@@H]1CCCCO[C@H](CN(C)C(=O)Cc2ccccc2)[C@@H](C)CN([C@H](C)CO)C(=O)c2cc(NC(=O)Nc3cccc4ccccc34)ccc2O1	-0.6
C[C@H](CO)N1C[C@H](C)[C@@H](CN(C)Cc2ccc(Cl)c(Cl)c2)Oc2ccc(NS(C)(=O)=O)cc2CC1=O	1.0
C[C@H]1CN([C@@H](C)CO)C(=O)Cc2cc(NC(=O)CCCN(C)C)ccc2O[C@H]1CN(C)S(=O)(=O)c1ccc(F)cc1	0.1
C[C@H](CO)N1C[C@H](C)[C@@H](CN(C)CC2CCCCC2)Oc2ccc(NS(C)(=O)=O)cc2CC1=O	-0.7
C[C@@H]1CN([C@@H](C)CO)C(=O)CCCn2cc(nn2)CO[C@@H]1CN(C)Cc1ccccc1	1.3
COc1ccc(NC(=O)N(C)C[C@@H]2Oc3ccc(NC(=O)Nc4ccc5c(c4)OCO5)cc3C(=O)N([C@H](C)CO)C[C@@H]2C)cc1	-0.3
C[C@@H]1CN([C@H](C)CO)C(=O)Cc2cc(NC(=O)C3CCCCC3)ccc2O[C@H]1CN(C)S(=O)(=O)c1ccc(Cl)cc1	-0.6
C[C@@H]1CN([C@H](C)CO)C(=O)c2cccc(NC(=O)C3CCOCC3)c2O[C@H]1CN(C)Cc1ccncc1	0.4
COc1ccc(CN(C)C[C@H]2Oc3ccc(NC(=O)C4CC4)cc3CC(=O)N([C@@H](C)CO)C[C@@H]2C)cc1	0.5
C[C@H](CO)N1C[C@H](C)[C@@H](CN(C)CC2CCCCC2)Oc2c(NC(=O)Nc3ccc(C(F)(F)F)cc3)cccc2C1=O	0.2
COc1ccc(CN(C)C[C@@H]2Oc3ccc(NS(=O)(=O)c4c(C)noc4C)cc3CC(=O)N([C@@H](C)CO)C[C@@H]2C)cc1	-0.1
C[C@@H]1CN([C@@H](C)CO)C(=O)CCCn2cc(nn2)CO[C@H]1CN(C)Cc1cccnc1	0.5
COc1ccc(CN(C)C[C@@H]2Oc3c(NS(=O)(=O)c4c(C)noc4C)cccc3C(=O)N([C@H](C)CO)C[C@@H]2C)cc1	0.4
O=C/C=C/c1ccc(-c2ccccc2)cc1	-9.6
COc1ccc(S(=O)(=O)Nc2ccc3c(c2)C(=O)N([C@H](C)CO)C[C@H](C)[C@@H](CN(C)CC2CCCCC2)O3)cc1	-0.6
C[C@@H]1CCCCO[C@@H](CN(C)C(=O)Nc2ccc3c(c2)OCO3)[C@H](C)CN([C@@H](C)CO)C(=O)c2cc(NS(=O)(=O)c3cn(C)cn3)ccc2O1	0.1
Cc1ccc(S(=O)(=O)Nc2ccc3c(c2)CC(=O)N([C@@H](C)CO)C[C@@H](C)[C@H](CN(C)Cc2ccc(Cl)c(Cl)c2)O3)cc1	-2.0
C[C@@H]1CCCCO[C@H](CN(C)Cc2ccc(C(=O)O)cc2)[C@H](C)CN([C@H](C)CO)C(=O)c2cc(NC(=O)Nc3cccc4ccccc34)ccc2O1	0.6
C[C@H](CO)N1C[C@H](C)[C@H](CN(C)CC2CCCCC2)Oc2c(NC(=O)CCCCCC(=O)Nc3ccccc3N)cccc2C1=O	-1.0
Cc1noc(C)c1NC(=O)N(C)C[C@H]1Oc2c(NC(=O)Nc3ccc(F)cc3)cccc2C(=O)N([C@@H](C)CO)C[C@@H]1C	-0.3
C[C@H]1CN([C@@H](C)CO)C(=O)c2cccc(NC(=O)Nc3ccc(F)cc3)c2O[C@@H]1CN(C)Cc1ccc(Oc2ccccc2)cc1	-0.8
C[C@H](CO)N1C[C@H](C)[C@H](CN(C)Cc2ccc(C(=O)Nc3ccccc3N)cc2)Oc2ccc(N(C)C)cc2C1=O	-0.2
C[C@H]1CCCCO[C@@H](CN(C)CC2CCCCC2)[C@@H](C)CN([C@@H](C)CO)C(=O)c2cc(NS(=O)(=O)c3ccc(Cl)cc3)ccc2O1	0.3
Cc1noc(C)c1NC(=O)N(C)C[C@@H]1Oc2c(NC(=O)C3CCOCC3)cccc2C(=O)N([C@H](C)CO)C[C@H]1C	0.5
COc1ccc(S(=O)(=O)Nc2cccc3c2O[C@@H](CN(C)C(=O)Nc2ccc(C(F)(F)F)cc2)[C@@H](C)CN([C@@H](C)CO)C3=O)cc1	-0.4
COc1ccc(S(=O)(=O)Nc2ccc3c(c2)C(=O)N([C@H](C)CO)C[C@H](C)[C@H](CN(C)S(=O)(=O)c2ccc(C)cc2)O3)cc1	-1.2
C[C@H](CO)N1C[C@H](C)[C@H](CN(C)Cc2ccc(C(F)(F)F)cc2)Oc2ccc(NS(=O)(=O)c3cn(C)cn3)cc2CC1=O	0.8
C[C@@H]1CN([C@H](C)CO)C(=O)Cc2cc(NC(=O)CCN3CCOCC3)ccc2O[C@@H]1CN(C)C(=O)Nc1ccc2c(c1)OCO2	-0.8
COc1ccc(S(=O)(=O)N(C)C[C@@H]2OCCCC[C@H](C)Oc3ccc(NC(=O)Nc4ccccc4)cc3C(=O)N([C@H](C)CO)C[C@@H]2C)cc1	-0.7
C[C@H](CO)N1C[C@H](C)[C@@H](CN(C)C(=O)NC2CCCCC2)Oc2ccc(N(C)C)cc2C1=O	-0.9
C[C@H]1CN([C@@H](C)CO)C(=O)c2cc(NS(=O)(=O)c3cccs3)ccc2O[C@H]1CN(C)S(C)(=O)=O	0.9
C[C@@H]1CN([C@H](C)CO)C(=O)c2cc(NC(=O)CCN3CCOCC3)ccc2O[C@@H]1CN(C)Cc1ccc(C(F)(F)F)cc1	-1.3
Cc1noc(C)c1NC(=O)Nc1cccc2c1O[C@@H](CN(C)C(=O)Nc1ccccc1)[C@H](C)CN([C@@H](C)CO)C2=O	-1.5
